HSV replic up: enhancers of HSV replication in host cells, fold increase, host cell viability; AID 1956, 2009; HSV replication augmentation in cells; 220,000 tested, 0.005% active; maximum fold increase;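 active means peak rise of 1.5-fold or more in the series; inconclusive means self-fluorescent or not available for retest; tested in PC3 cells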;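 further: first round at 10 µM; read as green reporter fluorescence; hits show the peak of a series up to 25 µM; 1 = signal of infected wells without compound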
INS promoter inh: inhibitors of insulin promoter-driven GFP, primary screen, imaging, TRM-6 cells (human fetal islet line), eGFP reporter, cell count | reporter expression induced with tamoxifen | inhibition, % at 2 µM | 130,000 tested, 0.9% active;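 active means inhibition above the mean plus 3 SD, with well images judged a real hit on visual review, cut at about 60% in these data, passing the limit was not always enough; inconclusive means inhibition over the cutoff but images rejected on review; inactive means inhibition not above the cutoff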
PKD1 inh: inhibitors of human PKD1 kinase, biochemical, fluorescence polarization. Serine/threonine-protein kinase D1 (Homo sapiens), Q15139. PKD1 kinase fluorescence polarization assay. inhibition, %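 (about 10 µM by stock and volumes)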. 200,000 tested, 0.056% active;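 active means inhibition of 50% or more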;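 further: controls were vehicle for no effect and a reference inhibitor for full effect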
Target sequence (Q15139 whole entry, looked up): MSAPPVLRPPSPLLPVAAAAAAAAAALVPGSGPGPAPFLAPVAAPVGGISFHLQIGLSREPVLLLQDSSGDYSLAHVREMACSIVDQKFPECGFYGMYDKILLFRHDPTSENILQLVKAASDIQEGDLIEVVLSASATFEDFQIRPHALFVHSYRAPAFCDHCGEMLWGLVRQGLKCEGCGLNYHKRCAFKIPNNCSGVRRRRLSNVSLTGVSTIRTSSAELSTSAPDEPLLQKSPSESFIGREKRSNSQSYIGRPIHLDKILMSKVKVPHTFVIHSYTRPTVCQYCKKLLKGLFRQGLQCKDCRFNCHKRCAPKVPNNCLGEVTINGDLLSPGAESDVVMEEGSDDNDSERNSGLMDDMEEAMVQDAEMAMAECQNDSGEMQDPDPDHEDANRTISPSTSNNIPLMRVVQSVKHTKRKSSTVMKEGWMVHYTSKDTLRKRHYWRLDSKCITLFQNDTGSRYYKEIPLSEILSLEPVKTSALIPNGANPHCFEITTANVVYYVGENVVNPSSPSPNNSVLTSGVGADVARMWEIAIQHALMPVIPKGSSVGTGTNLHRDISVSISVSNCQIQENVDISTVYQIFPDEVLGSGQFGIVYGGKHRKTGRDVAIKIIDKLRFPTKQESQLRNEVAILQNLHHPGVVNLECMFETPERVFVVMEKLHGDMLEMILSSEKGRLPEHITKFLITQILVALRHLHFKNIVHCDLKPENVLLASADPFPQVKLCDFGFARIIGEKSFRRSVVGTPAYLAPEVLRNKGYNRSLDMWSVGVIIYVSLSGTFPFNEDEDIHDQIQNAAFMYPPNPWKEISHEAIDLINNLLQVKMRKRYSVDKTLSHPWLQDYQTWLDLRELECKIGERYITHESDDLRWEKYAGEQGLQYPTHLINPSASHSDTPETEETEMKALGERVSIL
GALR2 ag: GALR2 receptor agonists, primary screen, cell-based | Galanin receptor type 2 (Homo sapiens), O43603 | GALR2-expressing cells, agonist activation read-out | activation, %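 (tested at 5 µM)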 | 140,000 tested, 0.48% active | AID 803, 2007;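 active means above mean plus 3 SD of all compounds, about 5% in these data, not always enough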;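 further: 0% = vehicle buffer wells and 100% = reference agonist at full effect; tested in CHO reporter cells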
RGS16-Gao HTS: modulators of RGS16 binding to Galphao, primary screen, biochemical, human proteins, multiplexed bead flow cytometry. Regulator of G-protein signaling 16 (Homo sapiens) + Guanine nucleotide-binding protein …. bead-based flow cytometry RGS16-Galphao binding, fluorescence; actives lie on both sides. binding response (% of control), % at 10 µM. 220,000 tested, 0.38% active. AID 1441, 2008;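 active means below 25% or above 175%, edge rows of some plates excepted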;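 further: Galphao activated by GDP with aluminum fluoride before binding; 100% = wells without compound and 0% = beads without RGS; some results beyond the cut were filed as inactive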
INS promoter inh cell count: also measured in INS promoter inh; calls as there; normalized cell count, %; measured here: cell count, toxicity; reference of the scale not given here;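 cells exposed to compound for 48 h; stained nuclei by imaging scaled within each plate; lower means fewer cells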
HSV replic up primary fold: further read-out of HSV replic up, marked with its call; fold increase; compound at 10 µM; measured here: primary screen fold increase 10 uM; tested in PC3 cells;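 GFP signal in the first replicate; 1 = infected wells without compound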
The depositor's hits bear a star; i = inactive; ? = inconclusive; . = no result given.

SMILES	HSV replic up	HSV replic up primary fold	INS promoter inh	INS promoter inh cell count	PKD1 inh	GALR2 ag	RGS16-Gao HTS
O=C(NCC(c1cccnc1)N1CCN(c2ccc(F)cc2)CC1)c1ccco1 (centres undefined)	i	0.88	.	.	3	.	98
COc1cc(C(O)c2nc3ccccc3n2C)cc(OC)c1OC (centres undefined)	i	0.95	-46	74	-10	-0.5	97
N#CC1CC(c2ccccc2)=NN1c1ccccc1[N+](=O)[O-] (centres undefined)	i	0.87	.	.	-5	.	99
COc1ccc(OC)c2c1sc(=NC(=O)CN1C(=O)CCC1=O)n2C	i	0.95	.	.	1	-3.0	109
Cc1occc1C(=O)N1CCCc2ccccc21	i	1	-68	34	4	1.5	91
Cc1ccc(N2CCN(/N=C/C=C/c3ccccc3)CC2)cc1	i	1.1	30	82	7	-1.7	44
Cc1c(Cl)cnc(NC(=O)COC(=O)CCC(=O)c2cccs2)c1Cl	i	1.1	.	.	-1	-0.6	94
Cc1ccc2nc(NCCC(=O)O)nc(-c3ccccc3)c2c1	i	0.99	27	94	-7	.	97
OCC1(Cc2ccccc2)CCN(Cc2cccc(F)c2F)CC1	i	1.1	.	.	-2	.	101
COc1ccc(CN/C(C)=C(/C#N)C(N)=O)cc1OC	i	1	-25	195	-8	-0.4	104
C=CCSC(=S)Nc1c(C)n(C)n(-c2ccccc2)c1=O	i	0.95	.	.	-8	.	99
Cc1ccc(NC(=O)COC(=O)CN2C(=O)NC3(CCCC3)C2=O)cc1S(=O)(=O)N(C)C	i	1	21	101	-4	.	111
O=C(CCSCCC(=O)NCc1ccc(F)cc1)NCc1ccc(F)cc1	i	1	2	128	-6	-0.6	104
Cc1ccc(C(=O)C(C)OC(=O)c2ccccc2[N+](=O)[O-])cc1 (centres undefined)	i	1	-6	143	-2	-0.1	50
CCOC(=O)c1cnc(-c2ccccc2)nc1N(C)C	i	1.1	-86	49	-2	-1.3	66

The closing five records of the part above open the next one:
SMILES	HSV replic up	HSV replic up primary fold	INS promoter inh	INS promoter inh cell count	PKD1 inh	GALR2 ag	RGS16-Gao HTS
C=CCSC(=S)Nc1c(C)n(C)n(-c2ccccc2)c1=O	i	0.95	.	.	-8	.	99
Cc1ccc(NC(=O)COC(=O)CN2C(=O)NC3(CCCC3)C2=O)cc1S(=O)(=O)N(C)C	i	1	21	101	-4	.	111
O=C(CCSCCC(=O)NCc1ccc(F)cc1)NCc1ccc(F)cc1	i	1	2	128	-6	-0.6	104
Cc1ccc(C(=O)C(C)OC(=O)c2ccccc2[N+](=O)[O-])cc1 (centres undefined)	i	1	-6	143	-2	-0.1	50
CCOC(=O)c1cnc(-c2ccccc2)nc1N(C)C	i	1.1	-86	49	-2	-1.3	66
Cc1cccc(OCCOc2ccc(/C=N/NC(=O)Cc3nnc(N)s3)cc2)c1	i	0.84	-9	50	-5	-1.4	-113
NC(CC(=O)O)c1cccc(OCc2ccccc2)c1 (centres undefined)	i	0.92	.	.	-10	-0.8	102
O=C(COC(=O)c1ccco1)NCc1ccc2c(c1)OCO2	i	0.95	.	.	.	.	30
O=c1[nH]c(/C=C/c2ccccc2OC(F)F)nc2c1cnn2-c1ccccc1	i	0.68	-38	93	4	15*	108
Cc1ccc(C(=O)CSc2nc(-c3ccccc3)ccc2C#N)cc1	?	.	-130	114	-2	-0.9	103
Cc1cc(C)c(Cn2ncn(-c3ccc(Br)cc3)c2=O)c(C)c1	i	1.1	.	.	5	.	98
CN(C)c1ccc(C(=O)OCC(=O)N2CCCCCC2)cc1	i	0.96	-14	87	-6	.	100
COc1ccc(/C=C/C(=O)c2ccc(C)c([N+](=O)[O-])c2)cc1O	i	1	.	.	0	-0.1	104
COc1ccc(CCNC(=O)CSc2nc3c(c(=O)n(C)c(=O)n3C)n2C)cc1OC	i	0.88	-44	119	-1	-1.3	95
Cc1cc(NC(=O)CCC(=O)N(c2ccccc2)C(C(=O)NCC2CCCO2)c2cccnc2)no1 (centres undefined)	i	0.92	.	.	-4	-0.9	101
CCc1ccc2[nH]c(=O)c(CN(CCCO)C(=O)NCc3ccccc3)cc2c1	i	0.96	-14	145	-1	0.0	-24
CC1(OC(=O)CCc2ccccc2)C(=O)C=C2C=C(c3ccc(C#N)cc3)N(C(CO)CO)C=C2C1=O (centres undefined)	i	0.85	.	.	.	.	94
CN(C)c1ccc(N=Cc2nc(-c3ccccc3)oc2OC(=O)c2ccccc2)cc1	i	0.89	25	103	-7	-1.6	105
CCN(CC(=O)NC1CCS(=O)(=O)C1)S(=O)(=O)c1ccc(C)c(C)c1 (centres undefined)	i	0.99	-28	73	-6	-0.3	111
CC1(C)CC(=O)C(C=NCCN2CCN(C3CC(=O)N(c4cccc(Br)c4)C3=O)CC2)=C(O)C1 (centres undefined)	i	1.1	21	110	0	.	99
CCc1cccc(C)c1NC(=O)C1CC=CCC1C(=O)O (centres undefined)	i	0.96	-33	131	-5	.	93
O=C(O)c1cccc(S(=O)(=O)Nc2ccc(S(=O)(=O)N3CCOCC3)cc2)c1	i	1	.	.	5	.	94
CC(O)CCC(=O)NNC(=S)Nc1ccccc1 (centres undefined)	i	1.1	42	139	1	.	103
CCn1c(/C(C#N)=N/O)nc2ccccc21	i	0.99	-29	170	-2	-2.8	104
CCc1cccc(NC(=O)CCS(=O)(=O)c2cccc3nonc23)c1	i	0.85	.	.	-14	-0.4	116
CCOc1ccc(Cn2c(=O)oc3ccc(C)cc32)cc1OC	i	0.96	.	.	3	0.2	102
CCOC(=O)c1c(C)[nH]c(C)c1C(=O)COC(=O)/C=C/c1ccc(OC(F)F)cc1	i	0.87	.	.	0	-0.8	108
OCCn1c(SCCOc2ccccc2)nc2ccccc21	i	0.78	-6	155	-1	0.4	103
O=C(C1CCCN(Cc2ccncc2)C1)N1CCc2ccccc2C1 (centres undefined)	i	0.92	.	.	17	-0.5	101
O=C(O)CCCCCNC(=O)c1ccncc1	i	1	-83	97	0	-0.6	104
O=C(CN(Cc1ccccc1F)S(=O)(=O)c1ccc(Cl)cc1)NCCCO	i	0.93	.	.	1	-3.2	76
c1ccc(Cn2ncc3c(NCc4ccco4)ncnc32)cc1	i	0.97	.	.	-4	-0.3	40
c1nc(NCCN2CCOCC2)c2sc3nc(N4CCOCC4)c4c(c3c2n1)CCC4	.	.	-58	87	-15	-1.1	43
NS(=O)(=O)c1ccc(NC(=S)NC2CCCCCC2)cc1	i	1	50	162	-3	-2.0	95
O=C(NC1CCCCC1)C(c1ccco1)N(Cc1cccs1)C(=O)Cn1nnc2ccccc21 (centres undefined)	.	.	.	.	-9	-2.0	.

With a hit mark in GALR2 ag (from the list above):
SMILES | HSV replic up primary fold | PKD1 inh | GALR2 ag | RGS16-Gao HTS
O=c1[nH]c(/C=C/c2ccccc2OC(F)F)nc2c1cnn2-c1ccccc1 | 0.68 | 4 | 15* | 108

Next section.
SMILES	HSV replic up	HSV replic up primary fold	INS promoter inh	INS promoter inh cell count	PKD1 inh	GALR2 ag	RGS16-Gao HTS
COc1ccc(N=N/C(C(C)=O)=C(/C)O)cc1	i	1	.	.	.	.	103
CN1CCN(CCCNC(=O)c2cc3c(-c4ccc(Cl)cc4)nn(C)c3s2)CC1	i	0.54	.	.	-10	-1.4	102
O=C(COc1ccc(Cl)cc1)NCc1nnc(SCC(=O)N2CCCCC2)o1	i	0.96	-26	87	0	-0.5	54
Cc1ccc(C(=O)NC2CCN(S(=O)(=O)c3ccc(C)cc3)CC2)cc1	i	0.91	.	.	-9	.	121
CN1CCN(C(=O)/C=C/c2ccc([N+](=O)[O-])cc2)CC1	i	0.86	3	108	-22	-1.1	115
NC(=O)CC(NC(=O)Cc1ccc(Cl)cc1)c1ccc(NC2CCCCC2)c([N+](=O)[O-])c1 (centres undefined)	i	0.76	.	.	.	.	105
CCc1nc2ccccc2c(NC(=O)CN2CC(C)CC(C)C2)c1C (centres undefined)	i	0.91	-107	110	-7	.	101
Cc1c(=O)n(OCc2ccccn2)c2ccccc2[n+]1[O-]	i	0.99	-55	151	-3	-0.7	105
CCO[C@@H]1OC(C(=O)N2CCN(Cc3ccccc3)CC2)=C[C@H](C)[C@H]1CCCO	i	0.86	.	.	4	.	115
CCC(NC(=O)c1ccccc1NC(=O)c1ccco1)C(=O)NC1CCCCC1 (centres undefined)	.	.	-83	76	3	0.1	99
NC(=O)CN1C(=O)C2C3C=CC(C3)C2C1=O (centres undefined)	i	0.88	31	53	-13	0.3	95
Cc1nnc(N2C(=O)c3cccc4cccc(c34)C2=O)s1	i	0.94	9	100	-2	-3.5	101
CSc1nc2c(cc1C#N)C(=O)CC(C)(C)C2	i	0.97	.	.	-3	.	106
CCc1ccc(OCC(=O)N(C)CCC#N)c(Br)c1	i	1	-43	145	-2	-2.0	102
COc1cccc(C2CC(c3cccs3)Nc3ncnn32)c1 (centres undefined)	.	.	0	69	10	-0.9	100
COc1ccccc1NC(=O)Cc1csc(NC(=S)Nc2ccc(C)cc2)n1	i	0.94	.	.	1	-2.3	101
Cc1cc(C(=O)CN2C(=O)NC(c3ccccc3)(c3ccccc3)C2=O)c(C)n1Cc1ccccc1	i	0.94	42	108	-9	-4.2	101
COC(=O)c1ccc(CSc2n[nH]c(C)n2)o1	i	0.97	-42	207	-4	-1.2	100
COc1ccc(-c2noc(COc3ccc(C)c(C)c3)n2)cc1OC	i	0.8	6	120	-2	-2.3	100

3 compounds out of the list above, arranged by the number in PKD1 inh, low to high:
SMILES	PKD1 inh
Cc1cc(C(=O)CN2C(=O)NC(c3ccccc3)(c3ccccc3)C2=O)c(C)n1Cc1ccccc1	-9
COC(=O)c1ccc(CSc2n[nH]c(C)n2)o1	-4
COc1ccccc1NC(=O)Cc1csc(NC(=S)Nc2ccc(C)cc2)n1	1
